Compound activity: PubChem, Broad Institute
MLL AF4-AF9 inh: blocks AF4 peptide binding to human AF9 | inhibition, % at 10 µM | 350,000 compounds, 0.47% hits | AID 651704 | AlphaScreen, biotin-AF4 peptide binding to FLAG-AF9;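 active = every replicate reaching a set inhibition limit, whatever the replicate mean, cut at about 25% in these data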;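 also: 0% = plate neutral control median and 100% = total signal loss; the record names both 10 and 1 µM as test concentration; the first replicate is given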
Target sequence (P42568 whole entry, looked up): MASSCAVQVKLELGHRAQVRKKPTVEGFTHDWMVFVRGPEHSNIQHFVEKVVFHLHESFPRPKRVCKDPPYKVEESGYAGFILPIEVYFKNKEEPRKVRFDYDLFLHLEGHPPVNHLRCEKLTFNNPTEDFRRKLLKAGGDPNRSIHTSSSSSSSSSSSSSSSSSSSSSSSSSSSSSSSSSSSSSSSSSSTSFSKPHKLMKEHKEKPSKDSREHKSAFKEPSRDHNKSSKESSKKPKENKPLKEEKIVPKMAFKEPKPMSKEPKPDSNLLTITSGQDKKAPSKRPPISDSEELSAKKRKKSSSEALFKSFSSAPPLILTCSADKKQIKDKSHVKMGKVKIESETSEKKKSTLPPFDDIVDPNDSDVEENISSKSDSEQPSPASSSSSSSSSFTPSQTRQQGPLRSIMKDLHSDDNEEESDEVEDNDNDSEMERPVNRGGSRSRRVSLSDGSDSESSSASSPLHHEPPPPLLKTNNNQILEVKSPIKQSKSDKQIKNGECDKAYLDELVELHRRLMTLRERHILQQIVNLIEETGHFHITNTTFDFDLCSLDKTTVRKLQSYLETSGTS
FGF22 binding: binders of recombinant human FGF22 by thermal shift; AID 651658; 340,000 compounds, 1.5% hits; SYPRO orange fluorescence; percent of sucrose octasulfate shift, DMSO zero; Q9HCT0; calls only at 9.99 µM;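 active = melting point raised past a set limit in the mean and every replicate; three in four hits are not shown here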
Target sequence (Q9HCT0 whole entry, looked up): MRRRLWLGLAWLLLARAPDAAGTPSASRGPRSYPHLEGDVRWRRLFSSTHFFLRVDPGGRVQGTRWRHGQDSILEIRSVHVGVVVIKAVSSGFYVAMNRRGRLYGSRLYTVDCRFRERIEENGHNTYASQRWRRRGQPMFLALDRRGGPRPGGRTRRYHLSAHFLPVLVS
Ecoli rRNA inh: selective bacterial rRNA inhibition in E. coli; E. coli WT GFP vs humanized-ribosome RFP mutants, fluorescence, 24 h; stronger effect = lower value; DMSO median 0, no signal -100; GFP signal change (wild-type ribosome), % (concentration not given with the values); 350,000 compounds, 1.6% hits; AID 720706;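 active = significant combined selectivity score with lowered wild-type GFP, culture density cut under 30%, mutant RFP and density less affected; inactive = any of these conditions unmet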; also: one replicate is shown; some compounds called inactive have numbers as strong as hits
Ecoli rRNA inh OD600: also measured in Ecoli rRNA inh; calls as there; OD600 change, %; measured here: OD600 growth;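 optical density of the mix in the first replicate; 0 = DMSO median and -100 = no signal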
Ecoli rRNA inh RFP: further read-out of Ecoli rRNA inh, marked with its call; RFP signal change, %; measured here: RFP humanized mutant strains;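 first replicate; 0 = DMSO median and -100 = no signal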
* hit, by the source's call; i = inactive; / = no result given.

SMILES | MLL AF4-AF9 inh | FGF22 binding | Ecoli rRNA inh | Ecoli rRNA inh OD600 | Ecoli rRNA inh RFP
C[C@H]1CN([C@@H](C)CO)C(=O)Cc2cc(NC(=O)Nc3ccccc3)ccc2O[C@@H]1CN(C)Cc1ccc2c(c1)OCO2 | 4.1 | i | 3 | -11 | -1.9
COc1ccc(NC(=O)C2CC3C=CC2C3)c([N+](=O)[O-])c1 (centres undefined) | 5.7 | i | -22* | -5.6* | -1.6*
O=C(C[C@H]1CC[C@@H]2[C@H](COC[C@@H](O)CN2C(=O)c2ccncc2)O1)NC1CCC1 | -9.3 | i | 1 | 5 | -6.4
C[C@H]1CN([C@@H](C)CO)C(=O)c2cc(C#CC3CC3)cnc2O[C@@H]1CN(C)C(=O)Cc1ccccn1 | -3.7 | i | 3 | -2 | -4.2
CCC(=O)N1C[C@@H](C)[C@H](OC)CN(C)C(=O)c2ccc(NC(=O)c3cnccn3)cc2OC[C@H]1C | -1.5 | i | 2 | 0 | -0.2
CN1c2ccc(-c3ccc(F)cc3)cc2[C@@H]2[C@@H](CCN2C(=O)c2ccncc2)[C@H]1CO | 0.3 | i | -5 | -5 | 2.3
C[C@H](CO)N1C[C@H](C)[C@H](CN(C)S(=O)(=O)c2cn(C)cn2)Oc2c(NC(=O)c3ccncc3)cccc2C1=O | -1.5 | i | 0 | 6 | -1.0
CCCCCCCCN1C(=O)[C@H](CC(=O)NCCC(C)C)C[C@@]2(C(=O)OCC)CCC=C12 | -1.2 | i | -16 | -12 | 8.0
CCOC(=O)[C@]12CCCC=C1N(Cc1ccc(Cl)cc1Cl)C(=O)[C@H](CC(=O)NCCCOC)C2 | -0.3 | i | -23 | -46 | -3.5
C[C@@H]1CN([C@H](C)CO)C(=O)c2cccc(NC(=O)Nc3cccc4ccccc34)c2O[C@@H]1CN(C)C | 6.9 | i | -1 | -3 | 4.4
COc1ccc(CN(C)C[C@@H]2OCCCC[C@H](C)Oc3ccc(NC(=O)Nc4ccc(C(F)(F)F)cc4)cc3C(=O)N([C@@H](C)CO)C[C@H]2C)cc1 | 8.5 | i | 4 | -1 | -4.8
O=C(NC1CCCC1)N1CCCCN2[C@H](C1)[C@H](c1ccc(/C=C/c3ccccc3)cc1)[C@@H]2CO | 1.8 | i | -50 | -44 | -7.5
COc1ccc(S(=O)(=O)N[C@H]2CC[C@@H](CCn3cc(C(C)C)nn3)O[C@@H]2CO)cc1 | 0.1 | i | 1 | -4 | -4.2
COc1cccc(CNC(=O)C[C@H]2CC[C@@H](NS(=O)(=O)c3ccccc3OC)[C@@H](CO)O2)c1 | -2.2 | i | 0 | -1 | -0.7
C[C@H]1CN([C@@H](C)CO)C(=O)c2cc(C#CC3(O)CCCC3)cnc2O[C@H]1CN(C)Cc1cncnc1 | -3.0 | i | 5 | 11 | -0.6
O=C(NNc1nc(N2CCOCC2)nc(N2CCOCC2)n1)c1ccccc1 | -17 | i | 11 | 6 | -1.3
CCCNC(=O)N1C[C@@H]2[C@H](c3ccccc31)[C@H](CO)N2Cc1cccc(OC)c1 | 4.9 | i | 3 | -2 | -0.9
CCC(=O)Nc1ccc2c(c1)C(=O)N(C)C[C@H](OC)[C@@H](C)CN(C(=O)c1ccc(F)cc1)[C@H](C)CO2 | -0.2 | i | 2 | 3 | -0.9
O=C1COc2ccccc2C(c2nc3ccccc3[nH]2)N1C1CC1 (centres undefined) | -3.4 | i | -2 | 16 | -6.3
CCCC#Cc1ccc2c(c1)O[C@@H](CN(C)Cc1cccnc1)[C@@H](C)CN([C@H](C)CO)S2(=O)=O | 3.4 | i | -15 | -61 | 13

Some of the entries above, reformatted.
| canonical_smiles | MLL AF4-AF9 inh | FGF22 binding | Ecoli rRNA inh | Ecoli rRNA inh OD600 | Ecoli rRNA inh RFP |
| --- | --- | --- | --- | --- | --- |
| C[C@H]1CN([C@@H](C)CO)C(=O)Cc2cc(NC(=O)Nc3ccccc3)ccc2O[C@@H]1CN(C)Cc1ccc2c(c1)OCO2 | 4.1 | i | 3 | -11 | -1.9 |
| COc1ccc(NC(=O)C2CC3C=CC2C3)c([N+](=O)[O-])c1 (centres undefined) | 5.7 | i | -22* | -5.6* | -1.6* |
| O=C(C[C@H]1CC[C@@H]2[C@H](COC[C@@H](O)CN2C(=O)c2ccncc2)O1)NC1CCC1 | -9.3 | i | 1 | 5 | -6.4 |
| C[C@H]1CN([C@@H](C)CO)C(=O)c2cc(C#CC3CC3)cnc2O[C@@H]1CN(C)C(=O)Cc1ccccn1 | -3.7 | i | 3 | -2 | -4.2 |
| CCC(=O)N1C[C@@H](C)[C@H](OC)CN(C)C(=O)c2ccc(NC(=O)c3cnccn3)cc2OC[C@H]1C | -1.5 | i | 2 | 0 | -0.2 |
| CN1c2ccc(-c3ccc(F)cc3)cc2[C@@H]2[C@@H](CCN2C(=O)c2ccncc2)[C@H]1CO | 0.3 | i | -5 | -5 | 2.3 |
| C[C@H](CO)N1C[C@H](C)[C@H](CN(C)S(=O)(=O)c2cn(C)cn2)Oc2c(NC(=O)c3ccncc3)cccc2C1=O | -1.5 | i | 0 | 6 | -1.0 |
| CCCCCCCCN1C(=O)[C@H](CC(=O)NCCC(C)C)C[C@@]2(C(=O)OCC)CCC=C12 | -1.2 | i | -16 | -12 | 8.0 |

(list continues)
SMILES | MLL AF4-AF9 inh | FGF22 binding | Ecoli rRNA inh | Ecoli rRNA inh OD600 | Ecoli rRNA inh RFP
CC(=O)Nc1cc(-c2ccc(N3CCN(C)CC3)cc2)cn2c(-c3cccc(C(=O)N(C)C)c3)cnc12 | 9.6 | i | 8 | 13 | -0.1
Cc1noc(C)c1S(=O)(=O)Nc1ccc2c(c1)C(=O)N([C@H](C)CO)C[C@H](C)[C@@H](CN(C)Cc1ccc(Oc3ccccc3)cc1)O2 | 5.1 | i | 1 | -8 | 6.9
Cc1noc(C)c1S(=O)(=O)Nc1ccc2c(c1)CC(=O)N([C@H](C)CO)C[C@H](C)[C@@H](CN(C)S(=O)(=O)c1ccc(F)cc1)O2 | 0.3 | i | -2 | 1 | 2.8
CCCNC(=O)[C@H]1[C@H](CO)[C@H]2Cn3c(ccc(-c4ccccc4)c3=O)[C@@H]1N2C(=O)C1CC1 | -0.7 | i | -2 | 0 | -2.5
COC(=O)[C@H]1[C@H](CO)[C@H]2Cn3c(cccc3=O)[C@H]2N1C(=O)C1CCCCC1 | -2.3 | i | 3 | 1 | 0.2
CO[C@@H]1CN(C)C(=O)c2ccc(NC(=O)c3ccc(-c4ccccc4)cc3)cc2OC[C@@H](C)NC[C@@H]1C | 9.5 | i | -8 | 4 | 18
C[C@@H]1CN([C@H](C)CO)C(=O)c2cccc(NS(C)(=O)=O)c2O[C@@H]1CN(C)S(C)(=O)=O | -3.9 | i | 5 | 0 | -2.2
COc1ccc(CN(C)C[C@@H]2Oc3ccc(NS(C)(=O)=O)cc3CC(=O)N([C@@H](C)CO)C[C@H]2C)cc1 | 0.0 | i | 0 | 0 | 1.3
Cc1noc(C)c1NC(=O)N(C)C[C@H]1Oc2c(NS(=O)(=O)c3ccc(Cl)cc3)cccc2C(=O)N([C@@H](C)CO)C[C@@H]1C | -1.5 | i | 2 | 1 | -2.3
C/C=C/c1ccc2c(c1)O[C@H](CN(C)S(=O)(=O)c1ccccc1OC)[C@H](C)CN([C@H](C)CO)S2(=O)=O | -5.0 | i | 0 | 5 | -3.5
COc1ccccc1NC(=O)N1[C@H](CO)[C@@H](c2ccccc2)[C@@H]1C#N | -0.3 | i | -1 | -3 | 1.1
CCCC#Cc1ccc2c(c1)O[C@@H](CN(C)C(=O)COC)[C@@H](C)CN([C@@H](C)CO)S2(=O)=O | 2.2 | i | -4 | -7 | 0.3
Cc1ccc(S(=O)(=O)N[C@H]2CC[C@H](CC(=O)NCc3ccc(Cl)c(Cl)c3)O[C@@H]2CO)cc1 | 1.1 | i | -5 | -7 | 0.4
N#C[C@H]1[C@@H](c2ccccc2C2=CCCCC2)[C@@H](CO)N1S(=O)(=O)c1ccccc1 | -1.6 | i | -13 | -34 | -7.2
COc1ccc(S(=O)(=O)N(C)C[C@@H]2Oc3cc(C#CC4CCCC4)ccc3S(=O)(=O)N([C@H](C)CO)C[C@@H]2C)cc1 | -1.5 | i | -5 | -4 | -3.6
Nc1ncnc2nc(-c3ccccc3)[nH]c12 | 0.1 | i | 16 | 8 | 0.9
COCC(=O)Nc1ccc2c(c1)OC[C@@H](C)N(Cc1ccccc1)C[C@@H](C)[C@@H](OC)CN(C)C2=O | 4.2 | i | 1 | 1 | 0.6
CCN1C(=O)C(CC(=O)NCCc2ccccc2)N(NC(=O)c2ccc(Br)cc2)C1=S (centres undefined) | -1.4 | i | -12 | -9 | -0.4
COCOCCn1cc(CN2CCS(=O)(=O)N(Cc3ccc(-c4ccc(F)nc4)cc3)C(CC(C)C)C2=O)nn1 (centres undefined) | 0.1 | / | 2 | -13 | -1.8
C[C@@H]1CN([C@H](C)CO)C(=O)Cc2cc(NC(=O)Nc3ccccc3)ccc2O[C@H]1CN(C)C(=O)NC1CCCCC1 | 0.1 | i | -1 | 2 | -2.2
Cc1noc(C)c1S(=O)(=O)Nc1ccc2c(c1)C(=O)N([C@@H](C)CO)C[C@@H](C)[C@H](CN(C)Cc1ccc(Cl)c(Cl)c1)O2 | -0.5 | i | -5 | -6 | 1.8
Cc1cccc2sc(=S)[nH]c12 | 2.8 | i | 0 | 8 | -1.7
C[C@@H]1CN([C@@H](C)CO)C(=O)c2cccc(NC(=O)c3nc4ccccc4s3)c2O[C@H]1CN(C)C(=O)Nc1ccc2c(c1)OCO2 | 0.4 | i | -5 | 1 | -0.3
O=C(N[C@@H]1CC[C@@H](CCNS(=O)(=O)c2ccc(F)cc2)O[C@H]1CO)C1CC1 | -1.4 | i | 0 | 7 | -1.1
O=C1CCCCC1CCS(=O)(=O)NCc1ccccc1 (centres undefined) | 1.5 | i | 0 | -8 | 1.8
CC(C)NC(=O)N(C)C[C@@H]1Oc2ccc(NS(=O)(=O)c3cn(C)cn3)cc2C(=O)N([C@H](C)CO)C[C@H]1C | -4.7 | i | -1 | -7 | 0.2
C[C@H](CO)N1C[C@H](C)[C@H](CN(C)Cc2ccc(C(=O)O)cc2)Oc2ccc(NS(=O)(=O)c3cn(C)cn3)cc2CC1=O | -4.4 | i | 1 | 2 | 1.7
C[C@@H]1CN([C@@H](C)CO)C(=O)c2cc(NC(=O)Nc3ccccc3)ccc2O[C@H]1CN(C)Cc1ccc2c(c1)OCO2 | 10 | i | -1 | -9 | 1.8
N#C[C@H]1[C@@H](c2ccc(/C=C/c3ccccc3)cc2)[C@@H](CO)N1C(=O)Cc1ccccn1 | -2.1 | i | 1 | 0 | -3.8
CC(=O)N(C)C[C@@H]1Oc2cc(C#Cc3cccnc3)ccc2S(=O)(=O)N([C@H](C)CO)C[C@H]1C | -2.2 | i | 1 | -3 | -1.7
Cc1noc(C)c1NC(=O)N1C[C@@H](O)COC[C@H]2O[C@H](CC(=O)NCC3CCCCC3)CC[C@@H]21 | -1.0 | i | 4 | 5 | -4.0
Cc1ccc(S(=O)(=O)N2C[C@H](O)COC[C@@H]3O[C@@H](CC(=O)NCC4CCCCC4)CC[C@H]32)cc1 | 27* | i | -1 | -3 | 0.2
O=C(N[C@@H]1CC[C@H](CCNS(=O)(=O)Cc2ccccc2)O[C@@H]1CO)c1ccc2c(c1)OCO2 | -1.7 | i | 2 | 3 | -0.9
CC(C)NC(=O)N(C)C[C@H]1Oc2ccc(NC(=O)Nc3cccc4ccccc34)cc2C(=O)N([C@@H](C)CO)C[C@H]1C | 1.4 | i | 1 | -6 | 0.3
CN(C)CCCNC(=O)C[C@H]1CC[C@H](NS(=O)(=O)c2ccc(F)cc2)[C@@H](CO)O1 | 3.7 | i | 3 | 2 | -1.2
O=C1N[C@@H](c2ccccc2)COCn2nncc2CC[C@@H]1Cc1ccccc1 | 1.2 | i | 2 | 4 | -2.9
O=C(C[C@H]1CC[C@@H]2[C@H](COC[C@H](O)CN2C(=O)c2ccncc2)O1)NCc1cc(F)cc(F)c1 | -11 | i | 2 | -5 | -5.2
CO[C@H]1CN(C)C(=O)c2ccc(NC(=O)c3nc4ccccc4s3)cc2OC[C@@H](C)NC[C@@H]1C | 3.3 | i | -6 | 0 | 0.1
C[C@H](CO)N1C[C@H](C)[C@@H](CN(C)CC2CCOCC2)Oc2ncc(C#Cc3ccccn3)cc2C1=O | -0.7 | i | 2 | 11 | 4.8
CC(=O)Nc1cncc(-c2cccc(C(=O)N3CCOCC3)c2)n1 | -0.7 | i | 11 | 19 | -2.2
O=C(NCC[C@@H]1CC[C@H](NC(=O)C2CCC2)[C@@H](CO)O1)c1cc(Cl)cc(Cl)c1 | -2.9 | i | -3 | 0 | -0.2
CCC(=O)N[C@H]1C=C[C@H](CC(=O)NCc2cc(F)cc(F)c2)O[C@H]1CO | -1.6 | i | 0 | 3 | 2.0

Some of the compounds tested, so the mix of outcomes need not match the whole.
